# Bioassay records deposited in PubChem BioAssay by several laboratories.
# A1 inh: caspase 3/7 activation in MEF A1-2A-BIM cells, primary screen, A1 inhibitor project, cell-based, luminescence, HTS. caspase activation, % (concentration not given with the values). 330,000 compounds, 0.066% hits. Caspase-Glo 3/7 luminescence, 3 h; percent of clofoctol response, vehicle zero;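 active means over half of replicate activation scores above 10%, or exactly half above 10 with the replicate mean above 10; inconclusive means replicate mean below 10 yet half the replicates above 10; inactive means over half of replicates below 10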;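 further: wells of about 30 µL received 50 nL stock; many hits fall short of the cut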
# LANA-H2A inh: blockers of LANA interaction with H2A/H2B – biochemical, FP readout, HTS, primary screen; AID 2629, 2010; Protein LANA1 (Human herpesvirus 8 type P (isolate GK18)), Q9QR71; 320,000 compounds, 0.6% hits; cell-free LANA-H2A/H2B peptide, fluorescence polarization; inhibition, % (test concentration not listed); in the data active means inhibition mostly above about 10%, no sharp cut-off; inactive means mostly below about 6.7%;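 further: stock transfer was 7.5 nL into about 10 µL; 0% = median of vehicle wells and 100% = median of positive control wells; one replicate is shown; the record names a cut of 25% in any replicate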
# ALR inh: inhibitors of human ALR sulfhydryl oxidase, primary screen, biochemical, H2O2 detection, HRP-luminol luminescence, single point | purified ALR, DTT oxidation | inhibition, % (no concentration beside the values) | 290,000 compounds, 3.8% hits;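 active means mean and each replicate at 75% or more; inconclusive means only one of the two met; inactive means neither met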;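 further: stock transfer was 7.5 nL into about 7.5 µL; 0% = neutral wells and 100% = wells with inactivated enzyme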
# Target sequence (P55789 whole entry, looked up): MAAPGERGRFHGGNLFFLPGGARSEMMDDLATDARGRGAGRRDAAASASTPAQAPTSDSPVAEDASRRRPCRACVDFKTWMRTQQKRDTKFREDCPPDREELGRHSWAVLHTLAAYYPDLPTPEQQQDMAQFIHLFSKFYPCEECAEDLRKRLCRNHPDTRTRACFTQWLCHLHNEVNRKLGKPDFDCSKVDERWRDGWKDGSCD
# Calb FLC: C. albicans growth inhibition with fluconazole, primary screen, CaCi-2 strain, Alamar Blue fluorescence | 300,000 compounds, 0.57% hits | C. albicans CaCi-2 (fluconazole-resistant clinical isolate) + fluconazole, 48 h | growth inhibition, % (concentration not given with the values);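 active means most replicates above 75%; inconclusive means exactly half above 75%; inactive means most below 75%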;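 further: all wells also contain fluconazole at 8 µg/ml as a sub-toxic cotreatment; 0% = median of DMSO wells and 100% = median of geldanamycin control wells; wells of about 8 µL received 7.5 nL stock; the first replicate is given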
# T cruzi repl: inhibitors of intracellular T. cruzi growth, primary screen, luminescence, NIH3T3 host cells | 300,000 compounds, 1.4% hits | inhibition, % (test concentration not listed) | AID 1885, 2009 | T. cruzi beta-gal in NIH3T3, 90 h;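 active means mean inhibition across valid replicates above about 55%, limit read from the data; inconclusive means mean below that limit but half or more replicates reach it; inactive means mean below it, under half of replicates reach it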;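 further: signal also drops with host cell toxicity which is not excluded here; 0% = plate median of DMSO wells and 100% = zero luminescence signal; higher percent means less beta-gal luminescence so fewer parasites; stock transfer was 50 nL into about 50 µL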
# B2AR ag: beta2AR agonists driving receptor internalization, primary screen, cell-based, FAP fluorogen, flow cytometry. Beta-2 adrenergic receptor (Homo sapiens), P07550. Am2.2-beta2AR cells; reference of the scale not given here. response, % (concentration not given with the values). 340,000 compounds, 0.43% hits. AID 504454, 2011;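 active means response above a set limit, near 3 SD of response in nonfluorescent compounds, cut at about 42% in these data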;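 further: stock transfer was 100 nL into about 11 µL; a reference agonist was the positive control; negative values mostly stem from fluorescent compounds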
# Target sequence (P07550 whole entry, looked up): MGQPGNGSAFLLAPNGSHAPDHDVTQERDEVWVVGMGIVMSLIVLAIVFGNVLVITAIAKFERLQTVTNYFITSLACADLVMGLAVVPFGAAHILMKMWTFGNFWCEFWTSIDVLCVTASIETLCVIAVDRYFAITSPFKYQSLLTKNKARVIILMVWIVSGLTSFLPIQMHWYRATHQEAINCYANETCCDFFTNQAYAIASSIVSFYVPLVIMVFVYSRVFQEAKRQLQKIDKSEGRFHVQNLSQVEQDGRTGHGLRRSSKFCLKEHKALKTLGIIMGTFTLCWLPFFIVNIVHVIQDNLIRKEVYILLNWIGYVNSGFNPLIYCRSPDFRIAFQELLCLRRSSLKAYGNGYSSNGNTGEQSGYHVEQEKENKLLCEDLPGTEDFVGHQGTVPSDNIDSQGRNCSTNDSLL
# Beta apoptosis: inhibitors of cytokine-induced beta cell apoptosis, primary screen, luminescence | INS-1E cytokine-induced death, ATP luminescence, 48 h; percent of positive-control rescue, neutral wells zero | protection from apoptosis, % (no concentration beside the values) | 300,000 compounds, 0.8% hits | AID 435005, 2010;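 active means all replicates at 75% or more, or half of them and the mean; inconclusive means half reach 75% but not the mean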;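 further: 0% = cytokine-treated negative control wells and 100% = positive control rescue; higher means more ATP so stronger rescue from cytokine killing; wells of about 40 µL received 100 nL stock; the first replicate is given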
# rRNA inh HTS: reduced GFP signal of wild-type E. coli, primary screen, bacterial rRNA inhibitor project, GFP/RFP fluorescence, OD600, single point | E. coli WT GFP vs humanized-ribosome RFP mutants, 24 h; hits give low values; DMSO median 0, no signal -100 | GFP signal change (wild-type ribosome), % (no concentration beside the values) | 350,000 compounds, 1.6% hits;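 active means significant combined selectivity score with lowered wild-type GFP, culture density cut under 30%, mutant RFP and density less affected; inactive means any of these conditions unmet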; further: one replicate is shown; some compounds called inactive have numbers as strong as hits
# rRNA inh HTS OD600: further read-out of rRNA inh HTS, marked with its call; OD600 change, %; measured here: OD600 growth;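 optical density of the mix in the first replicate; 0 = DMSO median and -100 = no signal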
# rRNA inh HTS RFP: further read-out of rRNA inh HTS, marked with its call; RFP signal change, %; measured here: RFP humanized mutant strains;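 first replicate; 0 = DMSO median and -100 = no signal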
# * hit, by the source's call; ? = inconclusive; / = not tested or not shown. An excerpt (hit frequency here may not be typical).
SMILES,A1 inh,LANA-H2A inh,ALR inh,Calb FLC,T cruzi repl,B2AR ag,Beta apoptosis,rRNA inh HTS,rRNA inh HTS OD600,rRNA inh HTS RFP
Clc1cccc(COn2c(-c3ccc(Cl)cc3Cl)nc3ncccc32)c1,-1.0,0.7,-4.2,1.4,11.9,2.8,10.1,/,/,/
Cc1ccc(-n2nc3c(N4CCC(C(=O)NCc5ccc(C)o5)CC4)nnc(C)c3c2C)cc1,3.0,-1.1,/,8.1,29.3,10.2,-4.5,-5.0,-1.4,9.1
CCOCCCNC(=O)C(NC(=O)c1ccc(NC(C)=O)cc1)c1ccccc1 (centres undefined),-0.4,-2.6,6.0,7.9,-1.3,-0.5,-7.9,16.7,4.3,-3.4
COc1ccc(-c2nnc(SCC(=O)N3CCCCC3)o2)cc1,0.2,-3.1,0.3,19.7,-2.3,-9.8,-4.1,6.5,10.8,0.4
COc1cc(C=O)ccc1OCC(=O)NC(C)(C)C,-0.5,0.8,/,?,-3.5,-0.5,3.5,19.4,18.4,1.4
O=C(COc1ccc2ccccc2c1Br)Nc1cccnc1,-0.4,3.2,-2.9,20.2,-1.6,-1.7,-4.3,-8.4,-9.0,-3.7
Cc1cc(=O)[nH]c(SCC(=O)Nc2ccc(F)cc2)c1C#N,0.4,1.8,91.3*,21.3,-5.3,3.9,-1.5,-25.0,-20.0,-2.6
CCN(CC)C(=S)SCC(=O)NC12CC3CC(CC(C3)C1)C2,-0.2,2.6,-49.7,-4.7,21.4,-5.2,3.0,/,/,/
CCN(C(=O)CN1C(=O)S/C(=C\c2cccc(OC)c2)C1=O)C1CCS(=O)(=O)C1 (centres undefined),0.1,2.3,-4.8,-6.1,-12.7,8.3,-1.5,9.4,2.2,1.8
CC(C)C1NC(C(=O)O)Cc2c1[nH]c1ccccc21 (centres undefined),0.9,3.1,-7.5,-17.4,-5.0,2.3,-4.7,-2.9,-5.2,4.8
CC1CCCC(C)N1CCNC(=O)C1CCN(S(=O)(=O)N2CCCCC2)CC1 (centres undefined),0.1,2.8,-2.1,4.0,4.1,10.2,-0.5,/,/,/
O=C(NCCCN1CCOCC1)C1CC(=O)N(C2CCCCC2)C1 (centres undefined),0.0,-3.2,-2.4,-0.9,1.3,1.1,6.4,/,/,/
COc1cccc(/C=C2/SC(=S)N(CCCC(=O)Nc3ccc(O)cc3)C2=O)c1,0.1,-8.7,-12.4,-1.3,53.1,-1.6,-11.0,-11.6,-11.4,-3.0
CCN1C(=O)N[C@@H](c2cccc(F)c2)C(C(=O)OC)=C1C,0.5,0.1,-6.1,-1.8,-10.4,-1.5,1.4,6.1,23.7,10.1
CC(OC(=O)Cc1c[nH]c2ccccc12)C(=O)N(C)c1ccccc1 (centres undefined),0.8,-2.2,-3.0,4.7,-17.5,-10.5,-7.9,3.0,0.7,-2.2
Cc1ncc([N+](=O)[O-])n1CCOC(=O)c1cc(Cl)cc(Cl)c1N,0.4,1.4,-14.8,11.0,0.4,-2.5,1.6,/,/,/
Cc1ccc(C)c(OCC(=O)N(C)CC(=O)Nc2ccc(Cl)c(C(F)(F)F)c2)c1,0.5,7.5,1.2,/,/,4.9,-5.4,12.9,11.4,2.8
CCOc1ccc(CC(C(=O)NN)C(=O)NN)cc1CN(C)C,0.4,-1.6,13.5,5.5,-3.4,16.0,-9.0,/,/,/
Cc1sc(/N=C/c2c(O)ccc3ccccc23)c(C#N)c1C,0.9,1.3,-11.0,8.5,-6.2,/,0.1,/,/,/
O=C(c1ccccc1)c1ccc2nc(N3CCCCC3)c3nncn3c2c1,0.3,-1.3,-3.9,0.1,21.2,-11.4,-6.4,-6.9,-4.4,-2.0
O=C(CN1CCc2ccccc21)NCc1ccccc1Cl,-1.2,2.1,-2.4,-6.7,6.5,-2.0,-8.2,/,/,/
O=C(CCc1ccccc1)Nc1cc(C(=O)O)cc(C(=O)O)c1,0.4,-1.2,-6.0,-19.0,-10.2,1.8,-1.5,57.0,25.4,6.8
COc1ccc2nc(Nc3ccccc3)sc2c1,-4.6,0.5,94.1*,53.1,-4.6,2.4,/,-20.0,-27.4,-2.3
COc1ccc(OC)c(NC(=O)c2ccccc2NS(=O)(=O)c2cccc3cccnc23)c1,0.6,-4.8,-37.3,-6.1,-0.2,-7.5,5.4,/,/,/
CCCCc1nc(SCC(=O)Nc2cc(C)on2)n[nH]1,-0.1,14.5,0.0,-21.9,3.1,-2.6,-9.2,7.2,2.7,-3.2
Cc1nc2ccc(NS(=O)(=O)c3cccc([N+](=O)[O-])c3)cc2s1,-1.0,5.7,-2.3,/,/,-4.1,7.7,-15.6,0.4,0.0
C[C@@H](C(=O)NCc1ccccn1)[C@@H]1C[C@@]1(C)[C@@H](NC(=O)OCc1ccccc1)c1ccccc1,2.1,-1.1,-2.4,-1.8,-9.0,-1.3,-1.4,-23.4,-28.5,0.9
O=C(N/N=C/c1ccc[nH]1)c1cccnc1,0.0,-0.8,-21.0,-0.6,1.1,1.4,-2.0,/,/,/
COC(=O)CCNC(=O)c1ccc2nc(Cc3ccc(OC)cc3)oc2c1,-0.7,-0.9,/,-6.3,-14.5,10.2,-4.4,-4.1,-4.7,-0.6
CC(C)c1ccc(NC(=O)Cc2c(C(=O)O)n(C)c3ccccc23)cc1,1.7,-0.5,97.0*,-6.2,-11.2,10.9,-10.8,-5.6,-26.0,6.3
COc1ccc2c(c1)cc1n2CCN=C1N,0.0,4.4,-24.2,-6.0,-23.0,-3.5,3.3,/,/,/
CCn1c(SCC(=O)Nc2ccc3c(c2)oc2ccccc23)nnc1-c1ccc(N)cc1,-0.2,2.6,-29.8,-30.0,4.0,-1.5,-9.5,/,/,/
O=c1onc(-c2ccccc2Cl)n1-c1ccccc1Cl,1.0,-1.7,-3.1,1.6,-0.5,-4.0,-4.8,4.8,5.5,-1.4
Clc1ccc2nc(CSc3ccccc3)cn2c1,-6.1,4.1,98.9*,?,-3.8,-12.2,2.3,-13.5,-8.5,-0.4
CCOc1ccc(C(=O)Nc2nnc(S(=O)(=O)N(C)Cc3ccco3)s2)cc1,-0.2,-1.4,-15.3,18.5,-14.3,1.9,1.4,-9.4,0.1,-4.5
C1CCN(c2nc3nonc3nc2NCC2CCOCC2)CC1,-0.7,-1.0,0.1,-9.8,-3.3,0.4,4.0,9.4,1.1,2.5
CCOc1ccc2cc(S(=O)(=O)N3CCCCC3)ccc2c1,0.1,9.3,/,-8.5,4.2,0.3,-3.5,-0.5,8.9,1.1
O=C(COc1ccccc1-c1ccccc1)N/N=C/c1cccc2ccccc12,0.7,-1.8,-2.4,6.2,41.1,14.5,-9.2,/,/,/
O=S(=O)(c1ccccc1)c1nc(-c2ccccc2)oc1N1CCCCC1,0.1,-0.3,-0.3,5.4,11.3,-11.8,-3.6,/,/,/
O=C(CN(c1cccc(Cl)c1)S(=O)(=O)c1ccc(Cl)cc1)N1CCc2ccccc2C1,0.1,0.6,-8.4,22.0,47.3,-4.6,3.0,/,/,/
CC(=O)c1cccc(NS(=O)(=O)N2CCOCC2)c1,0.0,-13.7,-3.3,9.8,-6.5,-3.8,0.3,5.1,18.2,1.3
O=C(NCCc1c[nH]c2ccccc12)/C(=C\c1cccnc1)NC(=O)c1ccco1,0.4,4.3,/,11.1,-9.1,-2.7,-4.0,-0.3,1.7,-3.1
COc1cc(NC(=O)CCNC(=O)Cn2ccc3ccccc3c2=O)cc(OC)c1OC,1.3,2.3,-3.0,9.8,-1.5,4.3,-8.0,/,/,/
CC(=O)O[C@H]1c2ccccc2-c2ccccc2[C@@H]1OC(C)=O,0.0,2.7,-28.4,-12.5,1.0,4.9,-4.5,-4.7,3.8,-4.4
COc1ccccc1C(=O)N(Cc1ccc(Cl)cc1)C1CCS(=O)(=O)C1 (centres undefined),1.0,4.4,-43.1,3.9,-13.0,2.4,1.8,-2.8,3.5,-2.5
O=C(Nc1cc(S(=O)(=O)Nc2ccccc2Cl)ccc1O)c1cc2c(s1)CCCC2,-0.3,1.1,/,2.5,-4.9,-7.0,6.5,-11.0,-0.4,-8.5
CCOC(=O)c1cnc2c(C)c(C)ccc2c1Nc1ccc(S(=O)(=O)Nc2ncccn2)cc1,0.0,-3.8,/,58.3,-2.5,8.0,-2.6,/,/,/
Cc1noc(C)c1S(=O)(=O)N1CCCC(C(=O)NCc2ccccc2Cl)C1 (centres undefined),0.0,-5.3,0.9,2.6,2.9,-3.0,-2.8,1.1,4.8,-0.2
COc1ccc(C(CNC(=O)COc2cc(C)ccc2Cl)N2CCCCC2)cc1 (centres undefined),0.4,0.4,2.7,-0.7,6.3,-2.3,4.9,12.2,8.5,1.3
O=C(Nc1cccnc1)c1coc(=O)c2ccccc12,-0.5,-1.8,5.5,-3.3,-0.1,0.7,/,/,/,/
O=C(O)c1cccc(NC(=S)NC(=O)c2ccc(-c3ccc(Cl)cc3)o2)c1,1.3,-2.5,15.4,25.3,-5.2,0.7,-5.8,-8.1,8.1,1.1
COc1ccc(-c2cc(C(=O)Nc3ccc(C)c(C)c3)no2)cc1,0.4,-0.4,-21.0,13.4,-3.1,5.6,10.7,8.3,15.3,1.8
COc1ccc(CSCC(=O)NCCC(C)C)cc1,0.3,0.7,-12.5,17.6,9.6,0.9,-4.8,8.8,4.8,0.4
CCCC(=O)Nc1nnc(-c2ccc3c(c2)OCCO3)o1,-1.1,-0.2,-5.4,-12.9,-13.4,-6.2,-5.3,-0.8,-0.7,0.3
Cc1nn(-c2ccccc2)c(C)c1NC(=O)COC(=O)c1cccc(OC(F)F)c1,-0.1,3.0,-1.9,7.6,0.5,-1.4,-2.2,2.0,7.6,-1.5
CS(=O)(=O)N1CCN(c2ccc([N+](=O)[O-])c(SCc3ccco3)c2)CC1,-0.2,1.3,-3.5,-1.8,16.1,-0.4,/,4.3,-8.7,11.7
COc1ccc(-c2nc(NC(=O)c3ccc(OCC(=O)N4CCOCC4)c(OC)c3)sc2C)cc1,0.7,6.1,96.1*,-5.1,12.8,24.6,9.6,/,/,/
CCCCCn1c(C(Cc2ccccc2)NC(=O)COC)nc2ccccc21 (centres undefined),1.0,-1.0,/,-2.9,-15.9,-0.7,0.6,-4.8,1.4,-3.0
CCN(CC)CCCn1c(=S)[nH]c2ccccc2c1=O,-0.2,4.9,-3.6,-21.0,-12.4,-11.5,-6.0,/,/,/
Clc1cccc(OCCn2cncn2)c1Cl,-1.4,0.0,-0.1,/,/,0.2,-7.6,/,/,/
